Compound activity (PubChem BioAssay)
KCNQ2 inh: KCNQ2 potassium channel inhibitors, primary screen, cell-based, CHO-K1, FluxOR thallium flux, B-score (AID 2156) | B-score at 10 µM | 20 min; active compounds read low; only compounds with negative scores are shown here; some inactives read as strong as hits | Potassium voltage-gated channel subfamily KQT member 2 (Rattus norvegicus), O88943 | hit rate 1.1% among 310,000;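 active means fluorescence ratio B-score at most minus 3 library SDs, with starting brightness B-score within 2 library SDs, cut at about -5.5 in these data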
Target sequence (O88943 whole entry, looked up): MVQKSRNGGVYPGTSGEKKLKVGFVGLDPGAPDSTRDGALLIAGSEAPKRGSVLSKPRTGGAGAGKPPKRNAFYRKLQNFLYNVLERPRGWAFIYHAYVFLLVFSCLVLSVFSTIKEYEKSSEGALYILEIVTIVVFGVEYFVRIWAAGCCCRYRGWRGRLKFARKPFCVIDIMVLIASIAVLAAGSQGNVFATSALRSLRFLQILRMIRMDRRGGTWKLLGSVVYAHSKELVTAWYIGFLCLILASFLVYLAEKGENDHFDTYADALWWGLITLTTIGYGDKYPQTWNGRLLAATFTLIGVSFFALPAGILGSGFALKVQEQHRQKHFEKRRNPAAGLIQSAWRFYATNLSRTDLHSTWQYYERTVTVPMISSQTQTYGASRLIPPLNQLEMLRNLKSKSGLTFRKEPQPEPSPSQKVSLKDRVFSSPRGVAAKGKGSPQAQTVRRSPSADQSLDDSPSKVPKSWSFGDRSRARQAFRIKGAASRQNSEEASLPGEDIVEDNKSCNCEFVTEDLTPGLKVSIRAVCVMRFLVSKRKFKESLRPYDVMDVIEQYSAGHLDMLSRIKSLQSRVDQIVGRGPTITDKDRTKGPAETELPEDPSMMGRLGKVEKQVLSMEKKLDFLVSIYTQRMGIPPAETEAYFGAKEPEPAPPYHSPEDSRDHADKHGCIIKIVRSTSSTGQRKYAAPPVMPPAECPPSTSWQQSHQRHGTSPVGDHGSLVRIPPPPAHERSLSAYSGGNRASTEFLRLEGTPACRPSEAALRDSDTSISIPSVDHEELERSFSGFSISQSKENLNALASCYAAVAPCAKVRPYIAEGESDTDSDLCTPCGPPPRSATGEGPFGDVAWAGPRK
KCNQ2 inh baseline: recorded beside KCNQ2 inh, whose call it bears; B-score; measured here: initial fluorescence intensity artifact check;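 brightness before thallium and not channel activity; 0 = typical well and far values either way flag optical interference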
An asterisk follows results filed as active; i = inactive; & = joins results of further samples. A portion of the library (hit frequency here may not be typical).

molecule	KCNQ2 inh	KCNQ2 inh baseline
CN(C)c1cc[n+](CC(=O)N2CCCc3ccccc32)cc1	i	0.11
COc1ccccc1N1CCN(S(=O)(=O)c2cn(C)nc2C)CC1	i	0.21
CC(=O)c1cc(-c2ccccc2)n(CC(=O)NC(C)(C)C)c1C	i	-0.68
Cc1nnc(SCC(=O)NCc2ccccc2)[nH]c1=O	i	1.16
Cc1noc(C)c1COc1ccc(CC(=O)NC2CCCCCC2)cc1	i	1.1
O=C(COC(=O)c1ccccc1C(=O)c1ccccc1)NCCc1ccccc1	i	-1
Cc1ccc(N=C2C(=O)Nc3ccccc32)cc1	i	0.63
Cc1ccc(C(=O)Nc2cc([N+](=O)[O-])ccc2F)s1	i	0.71
COC(=O)c1ccccc1NC(=O)COC(=O)c1ccco1	i	0.23
O=C(CS(=O)CC(=O)Nc1ccccc1-c1ccccc1)Nc1ccc(F)cc1 (stereo unspecified)	i	-1.57
O=C(Nc1ccccc1)C1=C[C@H](c2ccccc2)C[C@H](OCc2ccc(CO)cc2)O1	i	-1.02
COc1ccc(C2=Nc3cc(C)ccc3OC2)cc1	i	-0.11

Copied from the list:
COC(=O)c1ccccc1NC(=O)COC(=O)c1ccco1 in KCNQ2 inh baseline has 0.23
Cc1nnc(SCC(=O)NCc2ccccc2)[nH]c1=O in KCNQ2 inh baseline has 1.16
Cc1ccc(N=C2C(=O)Nc3ccccc32)cc1 in KCNQ2 inh baseline has 0.63
COc1ccccc1N1CCN(S(=O)(=O)c2cn(C)nc2C)CC1 in KCNQ2 inh baseline has 0.21
O=C(CS(=O)CC(=O)Nc1ccccc1-c1ccccc1)Nc1ccc(F)cc1 (stereo unspecified) in KCNQ2 inh baseline has -1.57
O=C(Nc1ccccc1)C1=C[C@H](c2ccccc2)C[C@H](OCc2ccc(CO)cc2)O1 in KCNQ2 inh baseline has -1.02

Next section
molecule	KCNQ2 inh	KCNQ2 inh baseline
O=C(COC(=O)Cc1ccccc1F)Nc1ccc(SC(F)F)cc1	i	0.3
Clc1cccc(CN2CCC(Cc3ccccc3)CC2)c1	i	2.31
CC(=O)Nc1ccc(-c2nnc(SCC(=O)NCc3ccco3)n2C)cc1	i	0.18
CSc1ccccc1C(=O)NC1CCSc2ccccc21 (stereo unspecified)	i	-0.03
Cc1ccc(C)c(N2CCN(S(=O)(=O)c3ccc4c(c3)OCCO4)CC2)c1	i	-0.8
COC(=O)C(C(=O)Nc1ccccc1C)C1CCCC1 (stereo unspecified)	i	1.33
CCCCN(C(C)=O)C1CC(=O)N(c2ccc(OCCC)cc2)C1=O (stereo unspecified)	i	-0.52
CCOC(=O)COc1ccc2ccccc2c1/C=C/[N+](=O)[O-]	i	0.38
O=C(NC1CCCCCC1)c1nc2ncccn2n1	i	-0.25
CC1=C(C(=O)Nc2ccccc2)C(c2ccc3c(c2)OCO3)C2=C(CCCC2=O)N1 (stereo unspecified)	i	-2.7
COc1ccc(CNC(=O)CSc2ccc(Br)cc2)cc1OC	i	-1.45
COc1cc2c(C(=O)N3CCN(c4ccccc4F)CC3)cn(C)c(=O)c2cc1OC	i	-1.27
C/C(=N/NC(=O)Cc1c(C)[nH][nH]c1=O)c1ccc(O)cc1	i	-2.76
CCN(CC)S(=O)(=O)c1ccc(C(=O)Oc2ccc3c(c2)OCO3)cc1	i	4.17
O=C(c1sc2ccccc2c1Cl)N(Cc1ccccc1)C1CCS(=O)(=O)C1 (stereo unspecified)	i	-0.37
C=C1CCC2[C@](C)(CO)[C@H](O)CC[C@@]2(C)[C@@H]1C/C=C1\C(=O)OC[C@H]1O (stereo partly specified)	i	-0.72
CCc1ccccc1NC(=O)CCC(=O)N1CCSc2ccccc21	i	0.65
CCCCn1c(N)c(N(CC(C)C)C(=O)c2ccc(N(C)S(=O)(=O)c3ccc(C)cc3)cc2)c(=O)[nH]c1=O	i	-0.13
CCOC(=O)COc1cccc2c(=O)n(CC(=O)NCCc3ccccc3)ccc12	i	1.27
CN(C)Cc1nc2c(c(=O)[nH]1)C(C)(C)Cc1ccccc1-2	i	1.12
O=C(Nc1ccccc1C(=O)N1CCOCC1)c1cc2ccccc2o1	i	-0.9
CC1(C)CC(=O)CC(=Nc2ccc3[nH]c(=O)[nH]c3c2)C1	i	-2.42
O=C(CCc1ccccc1)N=C1SC2CS(=O)(=O)CC2N1Cc1ccccc1 (stereo unspecified)	i	1.61
CCn1cc(/C=C(\NC(=O)c2ccc(OC)cc2)C(=O)N2CCN(C)CC2)c2ccccc21	i	-0.63
O=C(Nc1cc(Cl)ccc1N1CCOCC1)c1cc2ccccc2o1	i	-0.44
COc1cccc(NC(=O)CNC(=O)c2ccc(OC)c(OC)c2)c1	i	1.57
COc1ccccc1Nc1cc(C(=O)N2CCc3ccccc3C2)c2ccccc2n1	-6.28*	0.88*
CCOC(=O)C1=NOC2C3CC(C12)C1C(=O)N(CCc2ccc(OC)c(OC)c2)C(=O)C31 (stereo unspecified)	i	-0.45
COc1ccc(C(=O)Nc2ccc(NC(=O)c3ccccc3)cc2)cc1S(=O)(=O)N1CCOCC1	i	-1.12
COc1ccccc1CCNC(=O)c1nc(-c2cccs2)no1	i	-2.9
COc1ccc([N+](=O)[O-])cc1N(CC(=O)Nc1ccccc1C(=O)NC(C)C)S(C)(=O)=O	i	0.26
CC1(C)CC(N2CCN(CCO)CC2)=CC(=S)N1	i	-1.69
Cc1nc(N2CCN(Cc3nc4ccccc4[nH]3)CC2)c2oc3ccccc3c2n1	i	-1.08
Cc1ccc(S(=O)(=O)/N=C/c2c(O)ccc3ccccc23)cc1	i	1.95
CCOC(=O)C1(CC2CC2)CCN(Cc2cn[nH]c2-c2ccccc2)CC1	i	0.93
CC1=C[C@H]2Cc3cc(C)cc(C)c3S(=O)(=O)[C@@H]2C=C1	i	0.85

5 compounds picked at random from those above:
molecule	KCNQ2 inh	KCNQ2 inh baseline
COc1ccc(C(=O)Nc2ccc(NC(=O)c3ccccc3)cc2)cc1S(=O)(=O)N1CCOCC1	i	-1.12
COc1ccccc1Nc1cc(C(=O)N2CCc3ccccc3C2)c2ccccc2n1	-6.28*	0.88*
COc1ccccc1CCNC(=O)c1nc(-c2cccs2)no1	i	-2.9
CC1(C)CC(N2CCN(CCO)CC2)=CC(=S)N1	i	-1.69
CC1=C[C@H]2Cc3cc(C)cc(C)c3S(=O)(=O)[C@@H]2C=C1	i	0.85

(cont.)
molecule	KCNQ2 inh	KCNQ2 inh baseline
CCc1ccc[n+](-c2[nH]c(=O)sc2/C=N/NC([S-])=Nc2ccccc2)c1	i	1.01
O=C(CSc1nnc2ccccn12)Nc1cccc(-c2nc3ccccc3s2)c1	i	0.02
O=Cc1cnc(N2CCOCC2)nc1	i	0.03
COC(=O)CCNC(=O)c1nn(Cc2ccccc2)c(=O)c2ccccc12	i	0.61
CCC(CC)c1nnc(NC(=O)CCCN2C(=O)c3ccccc3C2=O)s1	i	-0.24
CCOc1ccccc1N1CCN(C(=O)c2ccc(NS(=O)(=O)c3ccc4[nH]c(=O)[nH]c4c3)cc2)CC1	i	0.78
CCCc1ccc(OCc2ccc(C(=O)OC)o2)c(OC)c1	i	-1.05
O=C1Nc2ccccc2C1(O)Cc1ccccn1 (stereo unspecified)	i	-0.16
C=CCc1cc(/C=C/c2nc(O)c([N+](=O)[O-])c(=O)[nH]2)cc(OC)c1O	i	-0.01
CCn1c(CN2CCN(c3ccc(Cl)cc3)CC2)nc2ccccc21	-5.62*	-0.03*
Cc1ccc(N(Cc2ccccc2)C(=O)c2ccc(F)cc2)cc1	i	0.06
O=C(O)CNC(=S)NCc1ccccc1	i	-0.33
CC1=C(C(=O)Nc2ccc(C)cc2)C(c2cccs2)NC(=S)N1 (stereo unspecified)	i	-1.91
COc1ccc(CCN(Cc2ccccn2)C(=S)Nc2ccc(C)cc2)cc1OC	i	0.42
CCOc1ccc(-c2ccc(NS(=O)(=O)c3cc([N+](=O)[O-])c(C)c([N+](=O)[O-])c3)cc2)nn1	i	-0.47
COc1cc(C2c3cc4c(cc3C(OC3OC5COC(c6cccs6)OC5C(O)C3O)C3COC(=O)C23)OCO4)cc(OC)c1O (stereo unspecified)	i	0.1
O=C(c1ccc(Cl)cc1)c1cc(-c2ccccn2)c(N2CCOCC2)s1	i	1.33
O=C(Cn1cnc2ccccc2c1=O)Nc1ccc2c(c1)OCO2	i	0.92
COc1ccccc1Nc1ncnc2c1oc1ccccc12	i	-0.6
O=C(Nc1ccc(N2CCN(C(=O)c3ccco3)CC2)cc1)c1cccc(F)c1	i	-0.02
CCOC(=O)C(C)n1nc(C)c2sc3ccccc3c2c1=O (stereo unspecified)	i	0.53
CCN(C(=O)c1ccnc(C(C)(C)C)c1)c1ccccc1	i	-0.46
CC1CC(C)CN(C(=O)CSc2nnc(-c3ccc(Cl)cc3)o2)C1 (stereo unspecified)	i	0.3
Cc1ccccc1OCCC(=O)OCC(=O)c1c(N)n(CC(C)C)c(=O)n(C)c1=O	i	2.03
CCOC(=O)c1cn(Cc2ccc(C)cc2)c2cc(F)ccc2c1=O	i	0.67
COc1ccccc1CNC(=O)CN(Cc1ccc(Cl)cc1)S(C)(=O)=O	-5.88*	1.01*
CC(=O)Nc1ccc(S(=O)(=O)N2CCN(c3cc4c(cc3[N+](=O)[O-])n(C)c(=O)n4C)CC2)cc1	i	2.18
Cc1cccc(OCCCn2c(=O)oc3ccc(C)cc32)c1	i	-0.39
O=C(c1ccccc1)N(Cc1ccc(F)cc1)Cc1nc2ccccc2c(=O)[nH]1	i	-1.57
O=C(c1c[nH]c2ccccc2c1=O)N1CCCCCC1	i	0.05
Cc1ccc(C2C(C(=O)c3cccs3)=C(O)C(=O)N2c2cccc(C)n2)cc1 (stereo unspecified)	i	1.75
COc1ccc(NC(=O)CCc2nnc3ccc(N4CCC(C)CC4)nn23)cc1OC	i	0.01
CN(C)S(=O)(=O)c1ccc(C(=O)Nc2ccccc2SCCC#N)cc1	i	1.17
COC(=O)c1ccc(C(=O)OC)c(NC(=O)N2c3ccccc3Sc3ccccc32)c1	i	0.51
C=CCN(c1ccccc1)S(=O)(=O)c1cccc(C(=O)NNC(=O)c2ccccc2O)c1	i	-0.93
COC(=O)CCC(=O)OC1(C)C(=O)C2=COC(c3ccc(OC)cc3)=CC2=C(Br)C1=O (stereo unspecified)	i	0.93
Cc1occc1C(=O)NNC(=S)Nc1cccc([N+](=O)[O-])c1	i	-1.44
COC(=O)N/N=C/c1cc(Cl)c(OCc2ccc(F)cc2)c(OC)c1	i	0.62
Cc1ccc(C2=N/C(=C\c3cccnc3)C(=O)O2)cc1	i	0.67
O=C(N1CCOCC1)N1CCN(Cc2ccccc2)CC1	i	0.11
Cc1nc2ccc(S(=O)(=O)Nc3ccc(-c4nc5cccnc5s4)cc3)cc2s1	i	0.24
COCc1cc(C)nc2sc(C(=O)Nc3ccccc3OC)c(N)c12	i	-0.81
CC(=O)Nc1ccc(NC(=O)C(Cc2ccccc2)NC(=O)C2CCC(C)CC2)cc1 (stereo unspecified)	i	-0.62
COc1ccc(-c2nc(-c3ccncc3)no2)cc1OC	i	2.45
CCCCNC(=S)N1CCn2cccc2C1c1ccc(F)cc1 (stereo unspecified)	i	-0.77
COc1cc2c(cc1OC)-c1cc(Nc3cccc(C)c3)nc(=O)n1CC2	i	0.12
CC(=O)c1ccc([N+](=O)[O-])c(CS(=O)(=O)c2ccc(Cl)cc2)c1	i	-0.86
COc1ccc(NC(=O)Cn2nnc(C(=O)Nc3ccc(F)c(Cl)c3)c2N)cc1	i	1
NNC(=O)CNc1ccccc1Cl	i	0.5
CC(C)(C)C1CCC(=NNc2nc3ccccc3[nH]2)CC1 (stereo unspecified)	-5.76*	0.27*
CCOc1ccc(CN2CCNC(=O)C2CC(=O)OC)cc1 (stereo unspecified)	i	1.83
CC1CCCCN1C(=O)CCC(=O)Nc1nnc(C2CCCCC2)s1 (stereo unspecified)	i	-2.73
Cc1ccc(NC2=CC(=O)CC(c3ccccc3)C2)cc1 (stereo unspecified)	i	1.22
O=C(NCCCn1ccnc1)/C(=C/c1ccco1)NC(=O)c1ccco1	i	1.69
COC(=O)C(=CC(=CN(C)C)C=C(C(=O)OC)C(=O)OC)C(=O)OC	i	-0.08
NC(=O)c1nsc(C(=O)N(c2cccc(F)c2)C(C(=O)NC2CCCC2)c2ccco2)c1N (stereo unspecified)	i	-0.62
COc1ccc(NC(=S)NNc2ccc(C(=O)O)cc2)cc1	i	-1.65
CCCN1C(=O)CN(C2CCCCCC2)C(=O)C1c1ccc(C)cc1 (stereo unspecified)	i	-0.64
Cc1ccnc(SCCn2c(N(C)Cc3ccccc3)nc3c2c(=O)n(C)c(=O)n3C)n1	i	3
COC(=O)c1ccccc1NC(=S)NC(=O)c1ccccc1C	i	-0.01

The results go on:
molecule	KCNQ2 inh	KCNQ2 inh baseline
COC(=O)C1=C(C(=O)OC)SC(=C2C(=S)C(C)(C)N(C(=O)C(C)C)c3ccccc32)S1	i	-0.33
CC1(C)CNC(=O)c2sc(N3CCOCC3)nc2C1	i	0.19
Cc1cccc(-n2cc(CN3CCCN(C=O)CC3)c(-c3cccc(F)c3)n2)c1	i	-0.04
CCn1c(=O)cc(SCC(=O)Nc2ccc3c(c2)OCO3)c2ccccc21	i	2.11
CSc1nnc(Cn2c(=O)sc3ccccc32)n1CCc1ccccc1	i	-0.42
CC1CCN(CCC(=O)Nc2ccc(Cl)cc2)CC1	i	0.32
Cc1ccc2nc(/C(C#N)=C/c3ccc(-c4ccccc4C(=O)O)o3)[nH]c2c1	i	0.18
CNCC[C@H](Oc1cccc2ccccc12)c1cccs1	i	1.6&1.07
Cc1oc(/C=N/NS(=O)(=O)c2ccccc2)cc1Br	i	-0.02
COC(=O)Cc1[nH]c(Cl)nc1C(N)=O	i	0.67
